Lassa entry inh: inhibitors of Lassa virus binding or cell entry; 300,000 tested, 1.2% active; Potency, µM (top dose mostly 37.9 µM), for inactives: top-dose activity change, negative = inhibition, usual class: inhibitors; Lassa virus pseudotype entry inhibition, cell reporter; control for the full effect not named in the record; active means well fitted inhibition curve with a large enough effect; inconclusive means small, poorly fitted or top-dose-only effect, or effect the other way; inactive means flat fitted curve, though single readings scatter; tested in HEK293 cells; note: % is set by controls: 0 for no effect and ±100 for the full control effect; nearly all actives have a fitted effect of over 50% in size; luciferase read-out
RE007 growth inh: less growth of the S. pombe RE007 Vpr strain; Potency, µM (series often up to 92.2 µM), for inactives: at the highest dose activity change, negative = less growth; S. pombe RE007 Vpr strain, BacTiter-Glo ATP luminescence, 24 h; control for the full effect not named in the record; 360,000 tested, 0.21% active; AID 651644; active = well fitted falling curve with a large enough effect; inconclusive = small, poorly fitted or top-dose-only effect; inactive = no such curve, though single readings can be large or run the other way;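 note: % is set by controls: 0 for no effect and ±100 for the full control effect; nearly all actives have a fitted effect of over 50% in size; the assay follows cell death caused by Vpr and the record does not say whether a fall means rescue or toxicity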
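Fission yeast strain RE007, carrying one chromosomally integrated HIV-1 vpr copy, was seeded at OD 0.01 in PMG+AL medium with 23 nL pinned compound. After 24 h at 30 °C and 99% humidity, viability was read by BacTiter-Glo luminescence.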
Cruzain noTriton: inhibitors of Trypanosoma cruzi cruzain without detergent; 200,000 tested, 2.3% active; Potency, µM, for inactives: max response, negative = inhibition, most hits filed as inhibitors; purified cruzain, Z-FR-AMC fluorescence, no detergent;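 note: plate controls were enzyme without inhibitor for no effect and buffer without enzyme for full effect; nearly all actives have a fitted effect of over 40% in size; top concentration of the series not given in the record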
Target sequence (P25779 123-467 limits assumed): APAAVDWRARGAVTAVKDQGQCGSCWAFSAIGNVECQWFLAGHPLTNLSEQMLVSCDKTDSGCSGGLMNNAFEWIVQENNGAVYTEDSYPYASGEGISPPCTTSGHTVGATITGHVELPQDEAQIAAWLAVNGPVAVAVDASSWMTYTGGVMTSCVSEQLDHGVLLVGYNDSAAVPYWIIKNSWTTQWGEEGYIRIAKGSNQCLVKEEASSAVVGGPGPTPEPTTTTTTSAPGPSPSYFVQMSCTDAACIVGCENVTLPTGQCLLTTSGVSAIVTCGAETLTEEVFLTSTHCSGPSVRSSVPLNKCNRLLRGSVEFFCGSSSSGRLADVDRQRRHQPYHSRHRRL
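Purified cruzain at 1.5 nM, pre-incubated 15 min with compound at room temperature in 100 mM sodium acetate pH 5.5, 5 mM DTT, 0.00005% Triton X-100. Reaction started with 2 uM Z-FR-AMC; AMC fluorescence increase over 60 s gives rate.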
Cruzain inh Det: blocks cruzain activity in presence of Triton detergent | 200,000 tested, 0.43% active | P25779 | Potency, µM, for inactives: max response, negative = inhibition, hits mostly inhibitors | purified cruzain, Z-FR-AMC fluorescence, 0.01% Triton;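 note: plate controls were neutral wells for no effect and buffer without enzyme for full effect; nearly all actives have a fitted effect of over 40% in size; top concentration of the series not given in the record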
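Purified cruzain (1.5 nM final) was preincubated with compounds for 15 min at room temperature in 100 mM sodium acetate pH 5.5, 5 mM DTT, 0.01% Triton X-100. Reaction started with 2 uM Z-FR-AMC; AMC fluorescence change over 60 s gave activity.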
SARS PLP yeast: blocks SARS-CoV papain-like protease in a yeast assay; S. cerevisiae expressing SARS-CoV PLpro, growth rescue; control for the full effect not named in the record; Potency, µM (titrated, usually from 32.9 µM), for the others: at the highest dose activity, positive = growth rescue; 330,000 tested, 0.19% active; active means well fitted rising curve with a large enough effect; inconclusive means small, poorly fitted or top-dose-only effect; inactive means no such curve, though single readings can be large or run the other way; note: 0% is about no effect; nearly all actives have a fitted effect of over 55% in size; growth read by luminescence after 48 h
MARV entry inh: inhibitors of Marburg virus binding or cell entry. Potency, µM (top dose mostly 37.8 µM), inactives show top-dose activity change, negative = inhibition, hits mostly inhibitors. Marburg virus pseudotyped entry inhibition, cell reporter; control for the full effect not named in the record; about a third of the inactives were read at about 46 µM. AID 540276. 300,000 tested, 1.8% active; active = well fitted inhibition curve with a large enough effect; inconclusive = small, poorly fitted or top-dose-only effect, or effect the other way; inactive = flat fitted curve, though single readings scatter; tested in HEK293 cells; about a fifth of its hits are not listed in these tables; note: % is set by controls: 0 for no effect and ±100 for the full control effect; luciferase read-out
StopGo reporter: lowers the luciferase signal of an FMDV 2A StopGo reporter. human cells with a luciferase reporter of 2A StopGo recoding; control for the full effect not named in the record. Potency, µM (titrated, usually from 57.9 µM), without a hit: top-dose signal change, negative = less light. 410,000 tested, 1.2% active. AID 1159524; active = well fitted falling curve with a large enough effect; inconclusive = small, poorly fitted or top-dose-only effect; inactive = no such curve, though single readings can be large or run the other way; tested in HEK293T cells; note: % is set by controls: 0 for no effect and ±100 for the full control effect; nearly all actives have a fitted effect of over 45% in size; luciferase light after 4 h
NS1 function inh: influenza NS1 inhibition | 270,000 tested, 0.4% active | Potency, µM (series often up to 46.1 µM), without a hit: top-dose activity, positive = more growth | AID 2326 | S. cerevisiae slowed by influenza A NS1, growth recovery by OD600; active means well fitted rising curve with a large enough effect; inconclusive means small, poorly fitted or top-dose-only effect; inactive means no such curve, though single readings can be large or run the other way; note: nearly all actives have a fitted effect of over 50% in size
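In this qHTS, NS1 from influenza A is expressed in budding yeast, where it slows growth. Cells are switched from glucose to 2% galactose medium (pH 6.0, -URA), treated with compound, and growth recovery is read at OD600.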
* = called active by the depositor; ? = inconclusive; . = no result given; & = joins results of further samples; [ ] = remark or other dose. Unless noted, calls come from the whole dose curve; as a rule, active = well fitted curve in the direction sought with a large enough effect; inconclusive = small, poorly fitted or top-dose-only effect, or another doubt; inactive = no such curve, though single readings can be large; an effect the other way counts as inactive or inconclusive. Potency is the fitted concentration of half-maximal effect. An unsorted share of the library; overall some 4.6% were active at least once.

SMILES	Lassa entry inh	RE007 growth inh	Cruzain noTriton	Cruzain inh Det	SARS PLP yeast	MARV entry inh	StopGo reporter	NS1 function inh
Cc1cccc(NC(=O)c2sc3nc4c(cc3c2N)CCCCCC4)c1C	-28%[46.1 µM]	.	7%	-1.3%	.	?	-25%	.
Cn1c(=O)[nH]c(=O)c2c1nc(N/N=C/C(Br)=C/c1ccccc1)n2CCO	8%[46.1 µM]	2%	.	.	-1%	?	-16%	2%
CC(C)N1CCC(N2CCN(CCCc3ccccc3)CC2CCO)CC1 (stereo not drawn)	?	-9%	.	.	-1%	?	-14%	2%
COC(=O)c1cc(-c2ccc(NC(C)=O)cc2)nc2ccccc12	?	3%	.	.	-1%	?	-9%	-7%
CN(c1ccccc1C(=O)O)S(=O)(=O)c1ccc2[nH]c(=O)[nH]c2c1	.	3%	.	.	-2%	.	7%	2%
O=C1C2CCN(CC2)C12CC2c1ccc(C(F)(F)F)cc1 (stereo not drawn)	1%	6%	.	.	0%	7%[46.1 µM]	-7%	0%
CC1CCN(CCOCCOc2ccccc2-c2ccccc2)CC1	?	-1%	-3%	-1.9%	-7%	?	-12%	-15%
O=C(N/N=C/c1cccc(C(F)(F)F)c1)c1ccc(O)cc1	-18%	-5%	.	.	0%	4%[46.1 µM]	7%	.
O=C(NCC1CCCO1)C1CCN(c2ccc(S(=O)(=O)N3CCCC3)cc2)CC1 (stereo not drawn)	4%	-9%	2%	5.5%	1%	13%	?	-4%
CCOC(=O)C1(Cc2cccc(F)c2)CCN(C(=O)c2ccoc2C)CC1	-30%[46.1 µM]	6%	.	.	-1%	-15%[46.1 µM]	-12%	-2%
COC(=O)c1nn(-c2ccccc2)c(Sc2ccccc2)c1/C=N/O	-13%	23%	-10%	-4.8%	3%	-3%	?	-4%
Cn1c(=O)oc2cc(S(=O)(=O)N3CCc4ccccc43)ccc21	.	9%	.	.	1%	.	-20%	0%
COc1ccc(-c2cccc(NC(=O)c3ccc4c(c3)OCO4)c2)nn1	-9%	14%	.	.	3%	?	27%	.
CCCN(CCC)CCCNC(=O)c1cn(C)c2ccc(S(=O)(=O)N(C)C3CCCCC3)cc2c1=O	?	-12%	.	.	-25%	9%[46.1 µM]	-1%	9%
CC1(C)CC(=O)c2c(-c3cccs3)n[nH]c2C1	26%	-3%[3.69 µM]	?	-1.8%	-1%	10%	-17%	-33%
Cc1ccc(-c2nc3ccc(C(=O)O)cc3nc2-c2ccc(C)cc2)cc1	-1%	2%	?	-16%	1%	6%	-6%	27%
CCOC(=O)c1cnc2c(c(C)nn2C)c1Oc1ccccc1F	.	1%	.	.	1%	.	-31%	-6%
COc1cc(C2Nc3ccccc3C(=O)N2c2ccc3c(c2)OCCO3)ccc1OCC(C)C (stereo not drawn)	?	-25%	?	-11%	-3%	?	-11%	5%
CN(C)c1cccc(N=C2C=C(N3CCOCC3)CC(C)(C)C2)c1	9%	-8%	-4%	-5.1%	1%	29%[46.1 µM]	-5%	4%
CCN(CC)c1ccc(-c2nn3c(-c4cccnc4)nnc3s2)cc1	?	-5%	?	-13%	1%	?	2%	-6%
OCCN(CCO)c1ncnc2c1cnn2-c1ccc(F)cc1	?	.	-10%	6.1%	.	.	44%[activator]	.
COc1ccc(C2CC(=O)Oc3cc(O)ccc32)cc1 (stereo not drawn)	.	4%	1%	-0.7%	-3%	.	-7%	.
COc1ccc(Cn2c(CO)cnc2SCc2ccccc2)cc1	19%[46.1 µM]	.	0%	-1.8%	.	.	0%	.
CN(c1ccccc1)S(=O)(=O)c1cccc(NC(=O)CN2CCc3ccccc3C2)c1	.	5%	.	.	-9%	?	-11%	.
O=C(O)c1ccc(-c2ccc(/C=N/Nc3ccc([N+](=O)[O-])cc3)o2)cc1	.	1%	.	.	-4%	.	8%	-4%
Carrying on.
SMILES	Lassa entry inh	RE007 growth inh	Cruzain noTriton	Cruzain inh Det	SARS PLP yeast	MARV entry inh	StopGo reporter	NS1 function inh
Cc1ccc2oc(=O)n(CCOc3ccccc3C)c2c1	2%[46.1 µM]	-7%	.	.	1%	15%[46.1 µM]	3%	2%
COc1cccc(-c2ccc3ncnc(NCc4cccnc4)c3c2)c1	.	.	-7%	-2.2%	6%&-3%	.	?	.
Cc1ccc(CNC(=O)CCSCc2cccc(F)c2)cc1	.	-14%	.	.	-3%	.	-7%	-40%
COC(=O)c1ccccc1N1C(=O)[C@@H]2C(c3ccc(Br)cc3)=NO[C@@H]2C1=O	-1%	-1%	-18%	-4.8%	-5%	-6%	-12%	?
CNC(=O)CCN(Cc1ccco1)S(=O)(=O)c1ccc(OC)c(OC)c1	5%	-11%	.	.	1%	21%	-5%	-4%
CCSc1nnc(NC(=O)C(C)C)s1	.	-1%	-2%	2.8%	12%	.	32%[activator]	6%
O=C1NC(c2cccc([N+](=O)[O-])c2)Oc2ccccc21 (stereo not drawn)	5%	2%	.	.	2%	.	-6%	.
CCOC(=O)c1cc(C)[nH]c(=O)c1C#N	.	-2%	.	.	1%	.	11%	-1%
CCOC(=O)N1CCN(C(=O)C(NC(=O)c2ccco2)C(C)C)CC1 (stereo not drawn)	-1%	6%	.	.	8%	-1%	-15%	17%
CCOc1ncccc1C(=O)OCC(=O)Nc1cc(S(=O)(=O)N(CC)CC)ccc1C	13%[46.1 µM]	-1%	.	.	-1%	-5%[46.1 µM]	9%	.
Cn1cc(SCC(=O)NCc2ccc(F)cc2)c2ccccc21	.	3%	.	.	-6%	-10%[46.1 µM]	-6%	.
COCCNC(=O)CSc1nc(-c2ccc(F)cc2)[nH]c1-c1ccc(Cl)cc1	-3%[46.1 µM]	.	-14%	1.3%	.	?	-15%	.
CCc1ccc2nc3c(c(C(=O)O)c2c1)CCC3	?	15%	3%	5.6%	0%	-1%	-3%	9%
CC(=O)Cc1cc(=O)c2c(C)cc(O)c(C3OC(CO)C(O)C(O)C3O)c2o1 (stereo not drawn)	.	1%	.	.	8%	.	-21%	5%
Cc1nc(SCc2ccc(Cl)cc2)c(C#N)c(C)c1Cl	?	.	-7%	-0.8%	.	6%[46.1 µM]	0%	.
CCOCCCN1C(=O)CN(C2CCCCCC2)C(=O)C1c1ccc(OCC)c(OC)c1 (stereo not drawn)	?	.	16%	0.6%	.	.	20%	.
Cn1ncc(Cl)c1C(=O)N1CCN(S(=O)(=O)c2cccs2)CC1	10%	6%	.	.	5%	-3%	-12%	12%
C/C(=N\NC(=O)c1ccc(N2CCCC2=O)cc1)c1ccncc1	-10%[46.1 µM]	19%	.	.	-1%	4%[46.1 µM]	-2%	12%
N#C/C(=C\c1ccc([N+](=O)[O-])cc1)c1nc(C2CC2)cs1	18%	22%	7%	-4.5%	-4%	?	26%	12%
CC(=O)n1c2ccccc2c2ccccc21	7%	-4%	-5%	-1.4%	-8%	0%	1%	-13%
CCC(C)NC(=O)CSc1nc2ccsc2c(=O)n1NC(=O)c1ccccc1 (stereo not drawn)	2%	0%	-2%	2.1%	0%	?	43%[activator]	1%
Cc1cccc(-c2cc(C(=O)N/N=C/c3cccnc3)c3ccccc3n2)c1	-9%[46.1 µM]	4%	.	.	.	?	5%	.
Cc1ccc(S(=O)(=O)N[C@H](C(=O)N2CCC3(O)CCCCC3C2)c2ccccc2)cc1 (stereo partly drawn)	-29%	5%	13%	0.4%	-2%	-17%	-10%	-4%
CCSc1cc(N2CC(C)OC(C)C2)nc(-c2ccccc2Cl)n1 (stereo not drawn)	?	1%	11%	3.1%	-24%	-44%	-16%	?
CN/C(=C\[N+](=O)[O-])NCCSCc1csc(CN(C)C)n1	.	-3%[18.4 µM]	-12%	-5.4%	.	.	-13%	.
Next part.
SMILES	Lassa entry inh	RE007 growth inh	Cruzain noTriton	Cruzain inh Det	SARS PLP yeast	MARV entry inh	StopGo reporter	NS1 function inh
Cc1nc2ccccc2n1S(=O)(=O)c1ccc(S(=O)(=O)N2CCCCCC2)cc1	6%	-2%	-5%	2.0%	-1%	-4%	13%	-7%
COc1ccc(OC)c(NC(=O)C2=C(C)C(=O)OC23CCN(C(C)C)CC3)c1	12%[46.1 µM]	.	-14%	-1.0%	.	.	-2%	.
CCOC(=O)N1CCN(C(=O)Nc2ccc3nc(C)c(C)nc3c2)CC1	4%	13%	-6%	-4.0%	1%	10%	-5%	12%
CCCCC[n+]1ccn(-c2nc3ccccc3nc2[N-]S(=O)(=O)c2ccc(C)cc2)c1	1%	-1%	-1%	6.9%	9%	-12%	39%[activator]	9%
COC(=O)c1ccc(CSc2ncnc3c2sc2nc(N4CCOCC4)c4c(c23)CCCC4)o1	1%	-10%	.	.	.	-10%	1%	.
CC(Oc1cccc(Cl)c1)C(=O)Nc1ccc([N+](=O)[O-])cn1 (stereo not drawn)	8%	?	-10%	-6.5%	-41%	-8%	0%	-21%
COc1ccc(C(=O)Nc2ccc3nc4c(c(Nc5ccc(OC)c(OC)c5)c3c2)CCCC4)c(OC)c1	-11%[46.1 µM]	.	-3%	-3.0%	.	?	-17%	.
Cc1ccc(C(=O)CCC(=O)OCC(=O)N2c3ccccc3NC(=O)C2(C)C)cc1	24%	0%	.	.	0%	?	-6%	.
COc1ccc(C(=O)CSc2cc(C)nc3nc(C)nn23)cc1OC	?	13%	?	-6.6%	1%	-2%	.	-5%
CCC(C(=O)NC1CCCC1)N(Cc1cccs1)C(=O)Cn1nnc(-c2ccc(OC)c(OC)c2)n1 (stereo not drawn)	1%	-1%	?	-8.1%	-5%	?	.	7%
CCC1=Nc2cc(C(=O)NCCN3CCOCC3)ccc2Sc2ccc(C)cc21	.	1%	.	.	-5%	.	-8%	-1%
CC(C)N(C(=O)COC(=O)[C@@H]1CC(O)CN1S(=O)(=O)c1ccc(C(C)(C)C)cc1)C(C)C (stereo partly drawn)	0%[46.1 µM]	-26%	.	.	3%	?	-14%	.
O=S(=O)(c1ccc(-n2cnnn2)cc1)N1CCN(c2cccc(Cl)c2)CC1	11%[46.1 µM]	.	1%	0.3%	.	-1%[46.1 µM]	-2%	.
O=C(CSc1nc2ccccc2[nH]1)Nc1ccc2c(c1)CCC2	-17%	.	-25%	-14%	-7%	-4%	-23%	18%
CC(=O)OC[C@H]1O[C@H](CCO/N=C(\C)CCN2CCCc3nc(C)c(C)cc32)C=C[C@@H]1OC(C)=O	-7%	.	?	-0.6%	0%	-28%[14.2 µM]	.	3%
Cc1ccc(S(=O)(=O)/N=C(\c2ccc(F)cc2)n2c(C)nc3ccccc32)cc1	5%	-8%	-6%	4.4%	3%	-1%	?	6%
